# Source: PubChem
# Mtb bLac sens = beta-lactam sensitization of Mtb H37Rv. M. tuberculosis H37Rv growth with meropenem, percent inhibition; hits of this screen are not shown here. inhibition, % at 25 µM. 0.27% of 330,000 active. AID 434955;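 active means about 74% or more and at least 40 points above the plate without the antibiotic, then above 30% in a dose series; inconclusive means first-round hits that could not be retested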;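 further: growth measured after seven days incubation then overnight dye step; 0% = bacteria only wells and 100% = bacteria with antibiotic; twin plates without the antibiotic show which effects depend on it; some results filed as inactive read as strong as hits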
# YopH PTP inh = blocks Yersinia enterocolitica YopH tyrosine phosphatase. fluorescence Ex485/Em525. inhibition, %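 (about 10 µM by stock and volumes)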. 0.16% of 140,000 active. AID 898;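 active means inhibition of 50% or more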;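 further: controls were vehicle for no effect and minimum signal wells for full effect; inactives centre near -20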
# RecA intein inh = inhibitors of M. tuberculosis RecA intein splicing; cell-free RecA intein splicing, fluorescence; 0.75% of 290,000 active; AID 2221; P9WHJ3; inhibition, %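 (about 9 µM by stock and volumes)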; in the data active means inhibition above about 30%; inconclusive means no clear call, values can overlap the other calls;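 further: 0% = vehicle wells and 100% = reference inhibitor control wells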
# Target sequence (P9WHJ3 whole entry, looked up): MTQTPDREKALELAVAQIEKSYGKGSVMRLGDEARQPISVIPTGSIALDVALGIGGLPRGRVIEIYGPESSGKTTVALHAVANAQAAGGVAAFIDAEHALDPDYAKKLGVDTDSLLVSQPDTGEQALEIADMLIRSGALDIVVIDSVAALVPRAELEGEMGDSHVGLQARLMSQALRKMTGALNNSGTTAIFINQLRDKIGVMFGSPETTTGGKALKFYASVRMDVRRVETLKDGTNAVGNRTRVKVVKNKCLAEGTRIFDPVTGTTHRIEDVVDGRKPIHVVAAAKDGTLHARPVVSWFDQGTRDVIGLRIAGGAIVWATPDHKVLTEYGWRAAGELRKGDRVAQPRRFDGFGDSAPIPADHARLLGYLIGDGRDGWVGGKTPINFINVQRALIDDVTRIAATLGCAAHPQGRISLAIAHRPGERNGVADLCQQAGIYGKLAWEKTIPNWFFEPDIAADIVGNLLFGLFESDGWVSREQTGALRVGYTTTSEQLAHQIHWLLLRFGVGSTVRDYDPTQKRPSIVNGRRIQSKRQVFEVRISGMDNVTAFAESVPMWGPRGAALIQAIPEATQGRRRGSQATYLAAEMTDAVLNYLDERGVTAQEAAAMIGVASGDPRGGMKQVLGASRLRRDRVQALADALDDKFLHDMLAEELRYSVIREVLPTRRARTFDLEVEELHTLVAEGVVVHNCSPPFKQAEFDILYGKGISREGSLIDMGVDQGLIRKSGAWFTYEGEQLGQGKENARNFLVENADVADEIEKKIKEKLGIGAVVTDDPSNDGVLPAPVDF
# Arbovirus anti = blocks arbovirus infection. 0.37% of 200,000 active. arbovirus infection cell-based antiviral screen. inhibition, % at 10 µM. AID 1251;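 active means inhibition from about 30%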;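 further: bluetongue infection of BSR cells; cell survival read as ATP light after 72 h; 0% = infected wells without compound and 100% = uninfected wells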
# Mtb H37Rv = M. tuberculosis H37Rv growth inhibitors, H37Rv strain (AID 1626) | M. tuberculosis H37Rv growth inhibition; higher % means a stronger effect | inhibition, % at 10 µM, or IC50 in µM where a hit was titrated | 0.95% of 220,000 active;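 active means confirmed in a dose series; inconclusive means inhibition above 80% but not taken into the dose series; inactive means below 80% or under 30% at every dose of the series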;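 further: bacteria incubated seven days before Alamar blue readout; 0% = bacteria only wells and 100% = bacteria with antibiotic wells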
# Arbovirus anti repeat = also measured in Arbovirus anti; calls as there; inhibition, %; measured here: 10K subset replicate screen; many hits read low in the repeat;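 first of two repeat runs on a subset; 0% = infected and 100% = uninfected wells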
# Numbers without * were called inactive; ? = inconclusive; nt = not tested or not shown.
# Preview, 6 compounds:
SMILES,Mtb bLac sens,YopH PTP inh,RecA intein inh,Arbovirus anti,Mtb H37Rv,others
COc1ccc(OC)c(S(=O)(=O)N(C)CC(=O)Nc2cc(Cl)ccc2OC)c1,-2,3,1.8,4,2%,
COc1cc(/C=N/NC(=O)c2cccnc2)ccc1OC(=O)c1cc(OC)c(OC)c(OC)c1,9,nt,-0.2,nt,nt,
CCOC(=O)c1ccc(NC(=O)NCc2ccncc2)cc1,-3,-21,-2.7,6,-1%,
CC1CC(C)CN(C(=S)Nc2ccc(OC(F)F)cc2)C1 (centres undefined),-1,-19,0.1,6,6%,
CC1CN(S(=O)(=O)c2cccc(C(=O)N=c3sccn3C)c2)CC(C)O1 (centres undefined),-2,nt,-0.4,nt,nt,
C=CCN(Cc1nc(-c2ccccc2)no1)C(=O)c1ccc2c(c1)OCO2,-6,nt,3.5,nt,nt,

# This part in full, from the first entry:
SMILES,Mtb bLac sens,YopH PTP inh,RecA intein inh,Arbovirus anti,Mtb H37Rv,others
COc1ccc(OC)c(S(=O)(=O)N(C)CC(=O)Nc2cc(Cl)ccc2OC)c1,-2,3,1.8,4,2%,
COc1cc(/C=N/NC(=O)c2cccnc2)ccc1OC(=O)c1cc(OC)c(OC)c(OC)c1,9,nt,-0.2,nt,nt,
CCOC(=O)c1ccc(NC(=O)NCc2ccncc2)cc1,-3,-21,-2.7,6,-1%,
CC1CC(C)CN(C(=S)Nc2ccc(OC(F)F)cc2)C1 (centres undefined),-1,-19,0.1,6,6%,
CC1CN(S(=O)(=O)c2cccc(C(=O)N=c3sccn3C)c2)CC(C)O1 (centres undefined),-2,nt,-0.4,nt,nt,
C=CCN(Cc1nc(-c2ccccc2)no1)C(=O)c1ccc2c(c1)OCO2,-6,nt,3.5,nt,nt,
O=C(/C=C/Nc1ccc(Oc2ccccc2Cl)cc1)c1ccco1,0,nt,-5.7,-8,>100µM*,
O=C(c1ccccc1-c1ccccc1)N1CCCC1,6,-20,0.9,9,0%,
CCOC(=O)C1CCN(C(=O)c2cc3cc(C)ccc3[nH]2)CC1,-2,nt,-0.1,nt,nt,
Cc1ccc(S(=O)(=O)N(C)/N=C/C=C/c2ccccc2)cc1,6,-9,1.1,-1,-12%,
COc1ccc(CN2CCN(CC=C(C)C)C(CCO)C2)cc1Cn1cncn1 (centres undefined),-4,nt,-2.2,0,4%,
CCN(CC)CCN(C(=O)c1ccc(C(=O)c2ccccc2)cc1)c1nc2cc3c(cc2s1)OCO3,-4,nt,7.0,nt,nt,
CCOC(=O)c1[nH]c2ccccc2c1NC(=S)Nc1ccccc1,-1,-40,-1.5,-5,nt,
Cn1cccc1CC(=O)N/N=C/c1cccc2ccccc12,5,-13,3.1,12,2%,
CCCCNC(=O)c1ccc(CS(=O)(=O)c2ccc(C)cc2)o1,-2,nt,-0.1,nt,nt,
O=C(CSCC(=O)N1CCOCC1)Nc1nc(-c2ccc3c(c2)OCO3)cs1,-5,-20,-0.3,-7,?,Arbovirus anti repeat=-3
Cc1ccccc1-n1c(SCC(=O)N2CCN(c3ccccc3)CC2)nnc1-c1ccncc1,2,-31,2.1,6,1%,
Cc1cccc(C)c1-n1c(C)cc(/C=N\NC(=O)CC(=O)NC2CCCCC2)c1C,-2,-14,3.2,8,-1%,
O=C(Cn1nc(Cc2cccnc2)c2ccccc2c1=O)N1CCN(C(=O)c2ccco2)CC1,-2,nt,-1.6,10,-1%,Arbovirus anti repeat=5
CCOC(=O)CCCc1c[nH]c2ccccc12,39,1,1.4,-3,-2%,
COc1cccc(SCC(=O)N2CCN(c3ccccc3)CC2)c1,0,nt,-0.6,nt,8%,
Cc1ccc(NC(=O)c2cnc(SCC(=O)c3ccccc3)n(C)c2=O)cc1,11,nt,-7.1,nt,nt,
COC(=O)c1ccc(N2CCN(c3ccccc3)CC2)c(NC(=O)C2CC2)c1,-2,-38,-2.3,-3,-3%,
CCn1cc(C(=O)NCCCN2CCC(C)CC2)c(=O)c2cc(S(=O)(=O)N3CCOCC3)ccc21,-2,nt,-4.5,nt,nt,
NCCCC(N)(C(=O)O)C(F)F (centres undefined),2,-40,-0.3,-6,-8%,

# Pulled by structure from above, six records:
SMILES,Mtb bLac sens,YopH PTP inh,RecA intein inh,Arbovirus anti,Mtb H37Rv,others
COc1ccc(OC)c(S(=O)(=O)N(C)CC(=O)Nc2cc(Cl)ccc2OC)c1,-2,3,1.8,4,2%,
COc1cc(/C=N/NC(=O)c2cccnc2)ccc1OC(=O)c1cc(OC)c(OC)c(OC)c1,9,nt,-0.2,nt,nt,
NCCCC(N)(C(=O)O)C(F)F (centres undefined),2,-40,-0.3,-6,-8%,
O=C(/C=C/Nc1ccc(Oc2ccccc2Cl)cc1)c1ccco1,0,nt,-5.7,-8,>100µM*,
CCOC(=O)CCCc1c[nH]c2ccccc12,39,1,1.4,-3,-2%,
CC1CC(C)CN(C(=S)Nc2ccc(OC(F)F)cc2)C1 (centres undefined),-1,-19,0.1,6,6%,

# 4 compounds out of the list, sorted by length of the SMILES, lowest first.
SMILES,Mtb bLac sens,YopH PTP inh,RecA intein inh,Arbovirus anti,Mtb H37Rv,others
O=C(c1ccccc1-c1ccccc1)N1CCCC1,6,-20,0.9,9,0%,
COc1ccc(CN2CCN(CC=C(C)C)C(CCO)C2)cc1Cn1cncn1 (centres undefined),-4,nt,-2.2,0,4%,
O=C(CSCC(=O)N1CCOCC1)Nc1nc(-c2ccc3c(c2)OCO3)cs1,-5,-20,-0.3,-7,?,Arbovirus anti repeat=-3
CCN(CC)CCN(C(=O)c1ccc(C(=O)c2ccccc2)cc1)c1nc2cc3c(cc2s1)OCO3,-4,nt,7.0,nt,nt,

# Other structures:
SMILES,Mtb bLac sens,YopH PTP inh,RecA intein inh,Arbovirus anti,Mtb H37Rv,others
CCCn1c2ccccc2c2nnc(SCC(=O)OCC)nc21,nt,12,-6.6,0,6%,
CCn1c(-c2ccccc2)c(C(=O)O)c2ccccc21,10,-37,1.5,-3,0%,
CSc1ccc(-c2nnn(Cc3ccccn3)n2)cc1,8,-38,3.1,-6,-3%,
COc1ccc(C(=O)N2CCN(S(=O)(=O)c3ccc(F)cc3)CC2)cc1OC,4,nt,1.8,-2,3%,
C=CCn1c(Cc2ccc(OC)cc2)nnc1SCC(=O)c1cccc([N+](=O)[O-])c1,-4,-19,-1.8,5,2%,
O=C(O)C1CC=CCC1C(=O)Nc1cccc(Cl)c1Cl (centres undefined),nt,-9,nt,1,-14%,Arbovirus anti repeat=6
Nn1c(COc2ccccc2)nnc1SCC(=O)O,-10,11,0.3,-4,-4%,
Cc1nn(Cc2c(Cl)cccc2Cl)c(Cl)c1C(=O)O,2,nt,-2.5,2,0%,
CCOc1ccc(Cn2c(=O)oc3ccccc32)cc1,2,nt,-1.0,nt,nt,
CN(Cc1nc2ccc(F)cc2[nH]1)Cc1c(C(=O)N(C)C)nc2ccc(Cl)cn12,-10,nt,1.3,-1,-10%,
NC(=S)NNC(=O)[C@@H]1CCCC[C@@H]1C(=O)O,4,-22,3.0,-5,-4%,
COc1cc(O)c(C(CCN2CCN(c3ccccc3)CC2)c2ccc(N(C)C)cc2)c(OC)c1 (centres undefined),76,nt,4.3,nt,19%,
O=C(CSc1nnnn1Cc1ccccc1)NCC(=O)c1ccccc1,3,-22,1.6,-5,-5%,
O=C(C(Cl)c1ccccc1)N1CCCC1 (centres undefined),-1,nt,-0.7,nt,nt,
CC(C)(C)SCCNC(=O)/C=C/c1cccc([N+](=O)[O-])c1,1,-23,-4.1,-2,9%,
CCOC(=O)c1c(NC(=O)c2cccs2)sc(C(=O)N2CCOCC2)c1C,1,nt,-3.5,nt,nt,
O=C(Nc1nc2ccccc2[nH]1)C1CCCC1,4,nt,-2.9,-8,-2%,
c1ccc(Cn2ccnc2SCc2nnc(-c3ccccc3)o2)cc1,-7,-25,0.8,3,7%,
O=C([C@H](Cc1ccc(O)cc1)n1cc(CCO)nn1)N1CCNCC1,-6,nt,-1.7,3,-14%,
CCCNC(=O)CCc1nnc2ccc(N3CCC(C)CC3)nn12,-1,nt,0.3,nt,nt,
COc1ccc(NC(=O)c2cc(-c3cc(OC)c(OC)c(OC)c3)nc3ccccc23)c(OC)c1,1,nt,10,nt,nt,
O=C(CSc1nc2ccccc2c2nc3ccccc3n12)NCc1ccco1,-10,31,0.3,-2,-10%,
COc1ccccc1C(=O)NNC(=O)c1ccc(Br)o1,-5,nt,1.6,nt,nt,
O=C(NCC(c1ccco1)N1CCOCC1)c1cccc([N+](=O)[O-])c1 (centres undefined),-6,nt,0.9,-3,-3%,
C=C1[C@@H](C)C2[C@H](Cc3ccccc3)NC(=O)[C@]23OC(=O)CC[C@H](O)CCC[C@H](C)C/C=C/[C@H]3[C@@H]1O (some centres undefined),nt,nt,0.5,nt,7%,
# The listing continues.
SMILES,Mtb bLac sens,YopH PTP inh,RecA intein inh,Arbovirus anti,Mtb H37Rv,others
COc1cccc(/C=C2/Sc3ccc(C(=O)NCCN4CCCC4)cc3NC2=O)c1,2,nt,1.9,nt,nt,
O=C(Cc1ccccc1)NC1(O)C(=O)c2ccccc2C1=O,1,nt,66*,nt,-13%,
CN1c2ccc([N+](=O)[O-])cc2CC2(C(=O)NC(=O)NC2=O)C1c1ccccc1 (centres undefined),2,6,1.9,-9,1%,
OC(CN1CCN(c2ccccn2)CC1)Cn1c2ccc(Cl)cc2c2cc(Cl)ccc21 (centres undefined),96,-6,9.4,-27,2.3µM*,
COc1ccc(CNC(=O)[C@@H]2CC=C[C@@H]3CCN(C4CC4)C(=O)[C@@H]32)cc1,-10,nt,-0.3,nt,-4%,
CCN(CC)S(=O)(=O)c1ccc(C(=O)Nc2ccc(C(F)(F)F)n(C)c2=O)cc1,-3,nt,-0.2,nt,nt,
CC1=CC(C)(C)N(C(=O)CSc2nnc(C)s2)c2ccc(C)cc21,4,-37,3.1,2,4%,
CCOC(=O)C(Cc1ccccc1)NC(=O)Cn1nnc(-c2ccccc2)n1 (centres undefined),0,-44,0.9,6,1%,
O=C(NCCC1=CCCCC1)C1CCCN(S(=O)(=O)c2cccc3cccnc23)C1 (centres undefined),-7,-19,-0.3,-8,-2%,Arbovirus anti repeat=-10
O=C(NCCN1CCOCC1)c1ccccc1Cl,-5,nt,0.2,nt,nt,
CCCCOCCCNC1=NCCCCC1,-2,-31,-0.6,8,-1%,
O=C1OCC(CO)(CO)N=C1NNc1ccc(Cl)c(Cl)c1,99,1,-3.6,-30,62%,
C/C(=N/NC(=O)c1ccncc1)C1=C(O)CC(C)(C)CC1=O,100,nt,-1.7,8,51%,
Cc1cccc(NC(=O)Cn2cc(C(=O)c3ccco3)c3ccccc32)c1,1,-7,8.6,-11,-6%,
COc1ccc(NC(=O)CSc2ccc(-c3cccs3)nn2)c(OC)c1,-8,nt,4.2,-7,-2%,
O=C(Nc1cccc([N+](=O)[O-])c1)c1ccc(CSc2ccccc2)cc1,-10,-28,3.5,-11,0%,
Cc1ccc(OCC(=O)N/N=C\c2ccc(O)cc2)c([N+](=O)[O-])c1,-2,nt,-0.5,-5,1%,
COc1cc(/C=C/C(=O)N2CCCN(C(=O)/C=C/c3cc(OC)c(OC)c(OC)c3)CC2)cc(OC)c1OC,7,nt,-2.2,8,-6%,
Cc1cc(N2CCN(C)CC2)n2cc(-c3ccc(F)cc3)nc2n1,13,-19,0.0,6,-3%,
O=C(Cc1ccc(F)cc1)Nc1ccc(S(=O)(=O)N2CCCC2)cc1,-3,nt,3.1,nt,nt,
C/C(=N\Nc1ncc(Cl)cc1Cl)c1ccc(C#N)cc1,-5,nt,0.1,-1,-10%,
CCCCn1nnc(NC(=O)c2sc3cc(Cl)ccc3c2Cl)n1,97,-23,-0.7,-10,53%,
CCN(CC)S(=O)(=O)c1cc(C(=O)c2nccn2C)ccc1Cl,-2,nt,-4.2,2,2%,
O=C(c1cc2c([nH]c1=O)CCCC2)N1CCc2c([nH]c3ccccc23)C1c1ccccc1F (centres undefined),4,nt,5.0,3,-3%,
Cc1c(C)c2ccc(OCC(=O)NCCCN3CCCC3=O)cc2oc1=O,?,nt,-0.3,nt,nt,
COc1ccc(Cn2nnnc2C(c2cc3cc(C)ccc3[nH]c2=O)N2CCN(C)CC2)cc1 (centres undefined),-2,nt,-1.6,-3,-4%,

# An excerpt, so the mix of outcomes need not match the whole.
